GIV Gai3 FP = GIV-Galpha-i interaction inhibition; AID 1224905; hit rate 0.42% among 210,000; Galpha-i3/FITC-GIV peptide fluorescence polarization, 90 min; active compounds read low; scaled: aluminum fluoride 0%, vehicle 100%; percent of control (FP), % (test concentration not listed);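 active means replicate mean at 85% of control or lower, very high polarization wells dropped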;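 further: lower values mean more displacement of the GIV peptide from Galpha-i3; wells of about 15 µL received 100 nL stock; the first replicate is given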
Target sequence (P08753 whole entry, looked up): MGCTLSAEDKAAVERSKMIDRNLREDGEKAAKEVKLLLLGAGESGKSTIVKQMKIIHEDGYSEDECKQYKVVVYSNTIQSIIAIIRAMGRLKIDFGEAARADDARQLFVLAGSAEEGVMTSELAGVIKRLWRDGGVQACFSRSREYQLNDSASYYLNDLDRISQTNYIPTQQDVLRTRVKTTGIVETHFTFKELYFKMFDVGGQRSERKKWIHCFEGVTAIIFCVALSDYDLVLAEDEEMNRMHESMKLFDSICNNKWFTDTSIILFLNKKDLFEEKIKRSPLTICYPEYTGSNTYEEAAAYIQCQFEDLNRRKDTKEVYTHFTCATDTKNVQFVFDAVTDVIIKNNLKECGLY
Sa growth 42C = inhibitors of Staphylococcus aureus growth at 42 °C; S. aureus RN4220 growth, OD600, 20 h; active compounds read low; relative growth, % (no concentration beside the values); hit rate 0.53% among 170,000; AID 720641;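 active means growth at 42 °C up to 50% and 20 or more points under that at 30 °C, or under 10% at both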;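 further: 300 nL library stock went into each well; scaled to the means of positive and negative controls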
HCMV UL50-53 inh = inhibitors of HCMV UL50-UL53 nuclear egress complex interaction. HTRF UL50-UL53 interaction, normalized percent inhibition. inhibition, % (concentration not given with the values). hit rate 0.15% among 190,000. AID 1918969;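 active means both replicates at 50% or more, plus weaker picks with an unusually low signal ratio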;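 further: stock transfer was 100 nL into about 20 µL; 0% = negative control wells and 100% = wells with untagged competitor protein; inactives centre near -12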
Sa growth 42C second temp = also measured in Sa growth 42C; calls as there; relative growth, %; measured here: growth at 30 °C;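 optical density after 20 h as mean of two plates; 100% = untreated growth and lower means inhibition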
Numbers without * were called inactive; / = no result given; & = joins results of further samples.

| Molecule | GIV Gai3 FP | Sa growth 42C | Sa growth 42C second temp | HCMV UL50-53 inh |
| --- | --- | --- | --- | --- |
| CC(/C=N/NC(=O)c1ccco1)=C\c1ccco1 | 107 | 113 | 108 | -48 |
| CCCC1CCC(c2ccc(C(N)=O)cc2)CC1 (stereo not drawn) | 104 | 74 | 84 | / |
| CC1=C(C(=O)Nc2ccccc2)C(c2ccc(Br)cc2)n2nnnc2N1 (stereo not drawn) | 106 | / | / | 3 |
| Cc1ccc(NC(=O)CCn2nc(C)c3c(C)n(-c4ccccc4)nc3c2=O)cc1Cl | 105 | 102 | 97 | / |
| CC(=O)N1CCC2(CC1)OC(=O)C(C)=C2C(=O)NCCN(CC(C)C)CC(C)C | 103 | / | / | -11 |
| COc1ccc(NC(=O)c2ccc3c(=O)n(CCc4ccccc4)c(=S)[nH]c3c2)cc1 | 99 | 115 | 93 | / |
| COc1ccc(CNC(=O)CC2Oc3ccccc3NC2=O)cc1 (stereo not drawn) | 105 | 108 | 83 | / |
| CC(C)NC(=O)CCSc1nc(-c2ccc3c(c2)OCO3)cc(C(F)(F)F)n1 | 99 | 97 | 90 | -15 |
| CCOC(=O)C1=NN(c2ccccc2)C(=C2C(=O)c3ccccc3C2=O)S1 | 94 | 96 | 91 | -20 |
| O=C(CNc1ccccc1F)N/N=C1\CCCCc2ccccc21 | / | 84 | 97 | 1 |

| Molecule | GIV Gai3 FP | Sa growth 42C | Sa growth 42C second temp | HCMV UL50-53 inh |
| --- | --- | --- | --- | --- |
| Cc1cc(NC(=O)Cn2c(=O)n(CC3CCC(C(=O)NCCc4ccccc4)CC3)c(=O)c3ccccc32)n[nH]1 (stereo not drawn) | 98 | 105 | 73 | -17 |
| COc1ccc(-c2cc(=NC(CC(C)C)C(=O)O)c3cc(C)ccc3o2)cc1 (stereo not drawn) | 106 | 92 | 64 | / |
| Cc1cccc(N2CCN(C(=O)CN(C)S(=O)(=O)c3ccc4c(c3)nnn4C(C)C)CC2C)c1 (stereo not drawn) | 108 | / | / | -3 |
| Cc1ccc(N2C(=O)C(CC(=O)Nc3ccc(F)cc3)N(Cc3ccc4c(c3)OCO4)C2=O)cc1 (stereo not drawn) | 103 | 115 | 87 | 6 |
| Fc1ccccc1-c1ccc(SCc2nc(-c3ccc4c(c3)OCO4)no2)nn1 | 106 | / | / | -13 |
| CC1=NN(c2ccccc2)C(=O)C1C=C1C(=O)N(C)C(=S)N(C)C1=O (stereo not drawn) | 108 | 109 | 103 | -3 |
| CCOc1ccc(S(=O)(=O)NCc2nc3cccnc3n2Cc2ccccc2OC)cc1 | 113 | 92 | 89 | / |
| CCOC(=O)c1cc(-c2ccc(F)cc2)n(CC(=O)NN2CCOCC2)c1C | 99 | 98 | 88 | -9 |
| Cc1cc(Br)cc(C)c1OCCCN(C)C | / | 110 | 91 | -11 |
| CCOc1ccc(CCNc2nc(-c3ccc(OC)cc3)no2)cc1OCC | 98 | / | / | -32 |

| Molecule | GIV Gai3 FP | Sa growth 42C | Sa growth 42C second temp | HCMV UL50-53 inh |
| --- | --- | --- | --- | --- |
| S=C(c1ccccc1)N1CCSCC1 | 105 | 97 | 100 | 22 |
| CC(=O)Nc1ccc(-n2c(-c3ccc(Cl)cc3)cn3c4c(=O)n(C)c(=O)n(C)c4nc23)cc1 | 102 | / | / | -23 |
| Cc1ccc(N)cc1CN1CCCC1=O | 96&98 | 84 | 97 | 1&-24 |
| Fc1ccccc1-c1nn2cnnc2s1 | 107 | / | / | -6 |
| Cn1c(=O)n(CCCc2ccccc2)c(=O)c2c1nc1n2CCN1c1ccccc1 | 100 | 98 | 95 | / |
| CCCn1c(=O)c2ccc(Cl)cc2n2c(SCc3ccc(Cl)cc3)nnc12 | 98 | / | / | 5 |
| Nc1cc(=O)[nH]c(=O)n1CCO | 104 | 103 | 84 | -11 |
| CCN(CC)C(=O)CCc1nc(CN2CCN(C(=O)c3cc(-c4cccs4)on3)CC2)no1 | 105 | 116 | 94 | -27 |
| COc1ccc(C)cc1NC(=O)N1CCN(CC(=O)c2c(C)n(C)c3ccccc23)CC1 | 102 | / | / | -13 |
| CCOC(=O)N1CCN(C(=O)CNC(=O)c2ccc(Br)cc2)CC1 | 108 | 107 | 96 | -14 |

| Molecule | GIV Gai3 FP | Sa growth 42C | Sa growth 42C second temp | HCMV UL50-53 inh |
| --- | --- | --- | --- | --- |
| Cc1cc(N2CCCCC2C)n2nc(-c3cccnc3)nc2n1 (stereo not drawn) | 109 | / | / | -10 |
| COc1cc2[nH]c(=S)n(NC(=O)CC(C)C)c(=O)c2cc1OC | 105 | 106 | 62 | 4 |
| CC1(C)CC(=O)CC(=O)S1 | 110 | 113 | 98 | 7 |
| CS(=O)(=O)NCCNc1cc(-c2ccccc2)nc2ccccc12 | 103 | 99 | 73 | -4 |
| N#CCC(=O)N1CCn2c1nc1ccccc12 | / | 97 | 95 | 4 |
| CC(C)(O)C#CC(O)c1ccc(F)cc1 (stereo not drawn) | 99 | 105 | 88 | -7 |
| Cc1ccc(-c2cc(C(F)F)nc(NCc3ccco3)n2)cc1 | 97 | 106 | 100 | -6 |
| O=C(CN1C(=O)C2CC=CCC2C1=O)NC1CCCc2ccccc21 (stereo not drawn) | / | 92 | 90 | -12 |
| O=C(O)CC1S/C(=N/N=C/c2ccccc2)NC1=O (stereo not drawn) | 101 | 75 | 95 | -9 |
| CCOc1cc(/C=C(\C#N)C(=O)NCC2CCCO2)ccc1O (stereo not drawn) | 102 | 99 | 91 | -20 |

| Molecule | GIV Gai3 FP | Sa growth 42C | Sa growth 42C second temp | HCMV UL50-53 inh |
| --- | --- | --- | --- | --- |
| CC(C)(CNc1nc2cc3c(cc2nc1NS(=O)(=O)c1ccccc1)OCCO3)N1CCOCC1 | / | 116 | 102 | -16 |
| CCOC(=O)c1cc(C)nn1C(=O)c1ccccc1Cl | 101 | 113 | 95 | -8 |
| Cc1nn(CC(=O)NCCc2ccccc2)c2ccccc12 | 105 | 104 | 84 | -2 |
| O=C(O)c1cc2ncc(Br)cn2n1 | 94 | 103 | 78 | -44 |
| CCN(CC)CCNC(=O)Cn1cnc2sc(C)c(S(=O)(=O)N3CCN(c4ccccc4OC)CC3)c2c1=O | 101 | 78 | 96 | -8 |
| CCOC(=O)c1cc2c(=O)n3ccccc3nc2n(CC(C)C)c1=NC(=O)c1c(-c2c(F)cccc2Cl)noc1C | 103 | 102 | 101 | 8 |
| CCOc1ccc(NC(=O)CSc2nc(-c3ccccc3)c3cc(OCC)ccc3n2)cc1 | 100 | 107 | 90 | -26 |
| CCCC(=O)c1ccc(N2CCc3ccccc3C2)c(F)c1 | 115 | 72 | 85 | -15 |
| Brc1ccc(-c2cn3ncsc3n2)cc1 | 102 | / | / | -10 |
| CC1Oc2ccccc2C(=O)N(CC(=O)c2ccc3c(c2)OCCO3)C1=O (stereo not drawn) | 104 | / | / | -13 |

| Molecule | GIV Gai3 FP | Sa growth 42C | Sa growth 42C second temp | HCMV UL50-53 inh |
| --- | --- | --- | --- | --- |
| CN(Cc1cccs1)C(=O)c1ccc2c(c1)NC(=O)CS2 | / | 88 | 90 | 5 |
| COc1cc(C2C(=O)N(C3CCCCC3)CC(=O)N2Cc2ccc(C)cc2)ccc1OC(C)C (stereo not drawn) | 105 | 104 | 99 | / |
| CCC(C)(C)NS(=O)(=O)c1ccc2c(c1)CCN2C(=O)NC1CCCCC1 | 102 | / | / | -7 |
| Cc1cc(C)c(-n2c(SCCS(=O)(=O)c3ccc(F)cc3)n[nH]c2=O)c(C)c1 | 102 | 99 | 79 | -21 |
| CCC(C)N1C(=O)S/C(=C/c2ccc(O)c(Cl)c2)C1=O (stereo not drawn) | 134 | -0.6* | 0.0* | -6 |
| Cn1c(=O)oc2cc(S(=O)(=O)NCCC(=O)NC3CCCc4ccccc43)ccc21 (stereo not drawn) | 103 | 109 | 98 | 2 |
| COC(=O)c1ccc(CNC(=O)c2nc(Cn3nc(C)c(Br)c3C)no2)cc1 | 105 | 113 | 92 | -9 |
| COc1cccc(CNC(=O)Cn2nc(-c3ccc(C)cc3)ccc2=O)c1 | 96 | 90 | 89 | / |
| Cc1cccc(Cn2c(=O)n(CCC(=O)NCCc3ccc(Cl)cc3)c(=O)c3sccc32)c1 | 104 | 94 | 89 | -36 |
| CC(=O)Nc1ccc(S(=O)(=O)Nc2nc(CN3CCOCC3)nc3sc4c(c23)CCCC4)cc1 | / | 129 | 102 | -5 |

| Molecule | GIV Gai3 FP | Sa growth 42C | Sa growth 42C second temp | HCMV UL50-53 inh |
| --- | --- | --- | --- | --- |
| COc1cc(OC)c(NC(=O)c2c3c(nn2C)-c2ccccc2SC3)cc1Cl | 103&98 | 99 | 100 | 6&-28 |
| COc1ccc(C2C(C(=O)NCc3ccccn3)c3ccccc3C(=O)N2C)cc1 (stereo not drawn) | 95 | 101 | 86 | / |
| O=S(=O)(c1ccc(Cl)cc1)c1nnn2c1nc(NC1CCCC1)c1sccc12 | 102 | 90 | 84 | / |
| CC1CN(C(=O)C(C)NC(c2ccccc2)c2ccccc2)CC(C)O1 (stereo not drawn) | / | 97 | 92 | -18 |
| COc1ccc(NC(=O)CCc2nnc3n(CC(C)C)c(=O)c4ccccc4n23)cc1OC | 99 | 101 | 85 | -30 |
| CCc1ccccc1Nc1nn2c(=O)c3ccc(C(=O)Nc4cc(C)cc(C)c4)cc3nc2s1 | 104 | 101 | 91 | / |
| COC(=O)c1ccc(COC(=O)c2cccn2C)o1 | / | 72 | 92 | -15 |
| Cc1ccc(C(=O)Nc2nnc(CCS(=O)(=O)c3ccc(Cl)cc3)s2)cc1[N+](=O)[O-] | 103 | / | / | -1 |
| CCOC(=O)N1CCN(C(=O)c2cnc3sc4c(n3c2=O)CCCC4)CC1 | 113 | / | / | -27 |
| CC(C)N(Cc1ccccc1)C(=O)C1CCN(C(=O)c2cnn(-c3ccccc3)c2-n2cccc2)CC1 | 101 | / | / | -14 |

| Molecule | GIV Gai3 FP | Sa growth 42C | Sa growth 42C second temp | HCMV UL50-53 inh |
| --- | --- | --- | --- | --- |
| Cn1c(=O)oc2cc(S(=O)(=O)N3CCCC3)ccc21 | 108 | 78 | 105 | 17 |
| Cc1ccc(Nc2ncc(C(=O)Nc3ccc(F)cc3F)c3ccccc23)cc1Cl | 109 | 89 | 88 | -16 |
| CN(C(=O)c1nc(-c2cccc(F)c2)n2c1CCCCC2)c1ccccc1F | 103 | 113 | 104 | / |
| CCc1ccc2oc(C(=O)N(Cc3ccc(N(C)C)cc3)Cc3ccco3)cc(=O)c2c1 | 102 | 115 | 97 | 13 |
| CSCCSc1nnc(Nc2cccc(C)c2C)s1 | / | 88 | 72 | 5 |
| COC(Cn1c(=S)[nH]c2ccccc2c1=O)OC | 111 | 91 | 79 | / |
| Nc1oc2cc(O)ccc2c(=O)c1-c1nc2ccccc2s1 | 104 | 102 | 50 | 8 |
| O=C(c1ccco1)N1CCN(C2c3cccc4cccc(c34)C2NS(=O)(=O)c2ccccc2)CC1 (stereo not drawn) | 102 | 118 | 90 | -25 |
| Cc1cc(C)cc(S(=O)(=O)Nc2cccc(-c3ccc(N4CCC(C)CC4)nn3)c2)c1 | 103 | / | / | -9 |
| CCOC(=O)c1sc2ncn(CC(=O)N3CCCc4ccccc43)c(=O)c2c1C | 96 | 84 | 92 | 1 |

| Molecule | GIV Gai3 FP | Sa growth 42C | Sa growth 42C second temp | HCMV UL50-53 inh |
| --- | --- | --- | --- | --- |
| CCc1ccc(NC(=O)C(Cc2ccccc2)NS(=O)(=O)c2ccc3c(c2)CCN3C(C)=O)cc1 (stereo not drawn) | 106 | 102 | 97 | 3 |
| CN(C(=O)COC(=O)c1ccc(Br)o1)c1ccccc1 | / | 131 | 84 | -28 |
| c1cncc(-c2nnc3n2CCCCC3)c1 | 102 | 89 | 87 | -16 |
| CCc1ccc(C(=O)Nc2cc(NC(=O)c3ccco3)ccc2C)cc1 | 103 | 96 | 95 | -16 |
| CCN(Cc1ccccc1)S(=O)(=O)c1ccc(C(=O)Nc2nnc(COC)o2)cc1 | 99 | 5.7* | 1.8* | / |
| NC(=O)c1c(-c2ccccc2)oc2ccc(O)cc12 | / | 116 | 80 | -9 |
| O=C(COC(=O)c1ccco1)c1ccc(-n2nncc2C23CC4CC(CC(C4)C2)C3)cc1 | / | 100 | 94 | 13 |
| CCc1nc2cccnc2n1-c1ccc(CC(=O)NCCOC)cc1 | 101 | 88 | 92 | -16 |
| COc1ccc(OC)c(N/C=C(\C#N)c2nc(-c3cc4ccccc4oc3=O)cs2)c1 | 101 | 90 | 77 | / |
| O=C(CC1COc2ccccc2N1Cc1ccccc1)NC1CCCC1 (stereo not drawn) | 111 | / | / | -15 |
| COc1ccc(NC(=O)CC(C)S(=O)(=O)c2ccc3c(c2)NC(=O)CO3)cc1 (stereo not drawn) | 99 | 92 | 94 | -2 |
| O=C1CCCc2cc(S(=O)(=O)NCC3CCC(C(=O)Nc4ccccc4)CC3)ccc2N1 (stereo not drawn) | 103 | 97 | 89 | -17 |
| Cc1cccc(N2COc3cc4c(cc3C2)OCO4)c1 | 105 | 75 | 80 | -52 |

Screening results (PubChem BioAssay)
